High-throughput results as filed in PubChem BioAssay.
KSHV LANA nucl = inhibitors of KSHV LANA binding to nucleosomes | FITC-LANA1-23 / chicken nucleosome fluorescence polarization; hits give low values | z-score (no concentration beside the values) | actives 0.3% (n = 51,000) | AID 720717;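 active = both repeat wells score below -2 in polarization z-score versus plate sample wells, excluding overly bright wells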;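 also: 100 nL library stock added to about 30 µL; numbers are from one replicate; some results filed as inactive read as strong as hits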
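Material: Purified chicken nucleosomes with FITC-labelled LANA N-terminal peptide (1-23) | Reagent: 50 nM FITC-LANA1-23 probe | Medium: TEN-BT buffer, pH 7.5 | Times: 10–45 min incubation at room temperature | Detection: Fluorescence polarization | Replication: Duplicates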
Ab BasE inh = inhibitors of Acinetobacter baumannii siderophore enzyme BasE. actives 0.1% (n = 84,000). purified BasE, fluorescence polarization binding displacement. inhibition, % (concentration not given with the values);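 active = both replicates above 25% with normal brightness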;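 also: 0% = negative plate control signal and 100% = positive plate control signal; stock transfer was 100 nL into about 30 µL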
* hit, by the source's call; x = no result given; & = joins results of further samples. An excerpt. The share of hits here may be higher or lower than overall.

SMILES | KSHV LANA nucl | Ab BasE inh
CC1(C)c2sc(=O)[nH]c2SC2C(=O)N(CC(=O)N3CCOCC3)C(=O)C21 (stereo unspecified) | x | 1.9
CCOC(=O)c1c(N)n(CCNC(=O)c2cc(OC)c(OC)c(OC)c2)c2nc3ccccc3nc12 | x | -1.7
O=C(Nc1ccc(NC(=O)C2CC2)cc1)C1CC1 | 0.287 | 1.5
CCOC(=O)Cc1c(C)[nH]c(=O)[nH]c1=O | x | -1.1
O=C(Cc1ccccc1)c1nc2ccccc2s1 | x | 0.6
Cn1c(O)c(C=Nc2ccc(Br)cc2)c2ccccc21 | x | 3.1
CCc1ccc(C(=O)OCC(=O)NC2CCCC2)cc1 | x | 2.2
Cc1ccc(-c2nnc(SCc3cccc(S(=O)(=O)N4CCOCC4)c3)n2N)cc1 | x | 0.1
CCOc1ccc(/C=N/NC(=O)c2cccnc2)cc1CN1CC2CC(C1)c1cccc(=O)n1C2 (stereo unspecified) | -1.05 | 1.8
O=C(O)c1cccc(Nc2ccnc3cc(Cl)ccc23)c1 | 0.135 | -1.4
CCCCNC(=O)C1CCN(Cc2ccccc2OCC)CC1 | 0.384 | -1.0
Cc1ccc(C)n1-c1nn(S(=O)(=O)c2cccc3cccnc23)c2cccc(F)c12 | -0.599 | -0.7
CCOC(=O)c1ccc2c(c1)nc(SC/C(O)=C(\C#N)c1nc3ccccc3[nH]1)n2CC | x | 2.0
COc1ccc(CCn2nnnc2CN2CCN(Cc3ccccc3)CC2)cc1OC | 1.05 | -1.3
Cc1ccc(C)c(OCCC(=O)N2CCN(S(=O)(=O)c3cc(F)ccc3F)CC2)c1 | x | 0.8
O=S(=O)(c1ccc(NC(=S)NCc2ccco2)cc1)N1CCCC1 | -0.0575 | -3.5
CC12CCC(=O)N1C(C(=O)OCn1nnc3ccccc3c1=O)CS2 (stereo unspecified) | x | 5.0
COC(=O)c1c(C(C)(C)C)oc2c1cc(NS(=O)(=O)c1ccc(C)cc1)c1ccccc12 | x | -0.9
CC1N=C(N)C(c2nc3ccccc3n2C)=C1O (stereo unspecified) | x | 0.6
COC(=O)c1ccc(NC(=S)NC(=O)C2CC2)cc1 | -0.74 | 0.4
O=C(O)Cc1cn(-c2ccc(Cl)nn2)c2ccccc12 | -0.96 | x
Cc1cccc(N2CCN(C(=O)CCC(=O)O)CC2)c1C | x | 0.0
CCc1ccc(-c2nc(CSCC(=O)NCc3ccco3)c(C)o2)cc1 | 0.664 | 0.9
CCC1=C(c2ccc(C)cc2)S(=O)(=O)N=C1N1CCC(C(=O)N2CCC(C)CC2)CC1 | 1.93 | -4.5
CN(C)c1ccc(Nc2cccc3nonc23)cc1 | -0.982 | -0.3
c1nc(N2CCCC2)c2ccsc2n1 | x | 1.7
CN(C(=S)NCc1ccco1)c1ccccc1 | x | -0.6
O=C(CSc1nc(-c2ccccc2)cc(=O)[nH]1)c1ccc(Cl)s1 | x | 0.1
CCC(C(=O)NCc1cccnc1)c1ccccc1 (stereo unspecified) | 1.04 | 1.0
CC(C)(C)C(=O)OCc1nc(-c2ccc(C(F)(F)F)cc2)cs1 | x | -0.3
CN(C)c1nc(N)nc(-c2ccco2)n1 | 0.196 | 2.1
N#C/C(=C\c1ccccc1)C(=O)N1C(=O)c2ccccc2S1(=O)=O | x | 0.6
CC(=O)Nc1cccc(NC(=O)C2CC(=O)N(C3CCCCC3)C2)c1 (stereo unspecified) | -0.278 | -0.8
N#Cc1cccc(C(=O)NCc2ccccc2)c1 | x | -1.5
COC(=O)[C@H](C)NC(=O)c1cccc(C)c1 | x | -1.5
Cc1ccc2nc(SCC(=O)N(C)c3ccccc3)nc(=O)n2c1 | -0.809 | 1.6
Cc1cc(C)n(-c2ccc(CSc3nnc(C4CC4)n3Cc3ccccc3)cc2)n1 | x | -1.9
CCOC(=O)C1CCN(c2csc3ccccc3c2=O)CC1 | 0.0805 | 2.9
NC(=O)CSc1nnc(CSc2nc3ccccc3s2)n1Cc1ccccc1 | x | -2.1
Cc1nc2cc(C(=O)N3CCN(C)CC3)ccc2n1-c1ccccc1 | -0.227 | -3.4

A draw from above in order of molecular weight, lowest first:
SMILES | KSHV LANA nucl | Ab BasE inh
CCOC(=O)Cc1c(C)[nH]c(=O)[nH]c1=O | x | -1.1
CC(C)(C)C(=O)OCc1nc(-c2ccc(C(F)(F)F)cc2)cs1 | x | -0.3
COC(=O)c1c(C(C)(C)C)oc2c1cc(NS(=O)(=O)c1ccc(C)cc1)c1ccccc12 | x | -0.9
CCOC(=O)c1c(N)n(CCNC(=O)c2cc(OC)c(OC)c(OC)c2)c2nc3ccccc3nc12 | x | -1.7

Next results
SMILES | KSHV LANA nucl | Ab BasE inh
FC(F)(F)c1nc2ccccc2nc1NCc1cccnc1 | 2.71 | x
CCn1c(CNC(=O)Cc2ccc(OC)cc2)nnc1SCCOc1ccccc1 | -0.147 | -1.8
CC(C)CNC(=S)N(C)N | x | -0.9
COc1ccc(-c2cn3ccccc3n2)cc1 | -0.564 | -2.7
CCCNC(=O)N1CCN(c2ncccn2)CC1 | -0.431 | 1.9
O=S(=O)(O)CCS | 0.55&-0.205 | 2.3
Cn1ccnc1Sc1ccc(S(=O)(=O)N2CCCC2)cn1 | x | -0.1
CC1CCCCC1NC(N)=O (stereo unspecified) | x | 2.4
Fc1cccc(Cl)c1-n1cccc1 | 0.362 | 2.6
OCCN(Cc1ccccc1)Cc1c(Cl)cccc1Cl | -0.481 | -0.1
COc1cccc(OC)c1Cn1nnc2c(=O)[nH]c(C(=O)Nc3ccccc3Cl)nc21 | 0.374 | -3.6
O=C(NCCN1CCCC1)C1c2ccccc2Oc2ccccc21 | -0.73 | -4.1
CC1CCN(C(=O)COC(=O)c2ccc(NC(=O)CC3SC(N4CCCC4)=NC3=O)cc2)CC1 (stereo unspecified) | x | -0.7
N#CC(C#N)=C1CCCN1C(=O)c1ccccc1 | x | 1.9
CCN(CCS(=O)(=O)c1ccc(Cl)cc1)C(=O)Nc1ccc(Cl)cc1 | x | -0.1
CCC1CSC(Nc2ccc(C)cc2)=N1 (stereo unspecified) | x | 0.3
Cn1c(C2CCS(=O)(=O)C2)n[nH]c1=S (stereo unspecified) | x | -0.4
O=C(NC1=NCCS1)c1ccc(S(=O)(=O)N2CCCCCC2)cc1 | x | 0.2
O=C(CN(C1CCCCC1)S(=O)(=O)c1ccccc1)N1CCCCC1 | -0.731 | -0.1
CC(C)(C)C(=O)OC[n+]1ccccc1 | -0.413 | 5.1

Retrieved by compound from the list above:
SMILES | KSHV LANA nucl | Ab BasE inh
CC1CCN(C(=O)COC(=O)c2ccc(NC(=O)CC3SC(N4CCCC4)=NC3=O)cc2)CC1 (stereo unspecified) | x | -0.7
COc1cccc(OC)c1Cn1nnc2c(=O)[nH]c(C(=O)Nc3ccccc3Cl)nc21 | 0.374 | -3.6
O=C(NC1=NCCS1)c1ccc(S(=O)(=O)N2CCCCCC2)cc1 | x | 0.2

(list continues)
SMILES | KSHV LANA nucl | Ab BasE inh
CCCCC1(O)CC(C)N(C)CC1C (stereo unspecified) | -0.335 | -1.5
c1cc(-c2nc3ccccc3o2)cc(-c2nc3ccccc3o2)c1 | -0.266 | 0.7
CCC(SC1=N/C(=C\c2cccnc2)C(=O)N1c1ccccc1)C(=O)N1CCOCC1 (stereo unspecified) | 0.575 | 0.3
Cc1ccccc1NC(=O)Cc1nc(COC(=O)c2nccnc2N)cs1 | x | 19.1
Cc1oc2ccc(O)cc2c1C(=O)O | x | 9.4
O=C1CCSc2c1cccc2C(=O)Nc1ccccc1F | 0.079 | 2.9
Cc1cc(-n2nc3ccccc3n2)c2oc(SCC(=O)NC(C)(C)C)nc2c1 | -0.599 | -1.0
CCCn1c(SCc2csc(NC(C)=O)n2)n[nH]c1=O | x | 1.0
COc1cc(CNc2ccccc2)ccc1OCC(N)=O | x | -1.8
CC(=O)N(/N=C1\Sc2ccccc2C1=O)c1ccccc1 | x | -1.1

Full records, quoted from the list. Order of values: KSHV LANA nucl | Ab BasE inh
Listed for CCC(SC1=N/C(=C\c2cccnc2)C(=O)N1c1ccccc1)C(=O)N1CCOCC1 (stereo unspecified) : 0.575 | 0.3
Listed for CCCn1c(SCc2csc(NC(C)=O)n2)n[nH]c1=O : x | 1.0

(continued)
SMILES | KSHV LANA nucl | Ab BasE inh
Cc1ccc(C(=O)NC2CCCCCCC2)cc1S(=O)(=O)N1CCOCC1 | x | 0.6
O=C(Nc1cccc2ccccc12)OCC(F)(F)F | 0.222 | 1.0
Cc1ccc(/C=C/c2onc3c(=O)n(C)nc(C)c23)cc1 | x | 0.7
CCOC(=O)c1ccc(CC2SC(=Nc3ccc(CC)cc3)NC2=O)cc1 (stereo unspecified) | x | 0.1
CCN(C(=O)c1ccc2c(c1)CCO2)c1cccc2ccccc12 | x | 3.0
CC(C)N1C(=O)/C(=C\c2cccs2)SC1=S | -1.24 | 0.8
CN(C)CCS(=O)c1ccccc1 (stereo unspecified) | -0.0585 | -0.3
CO/N=C(/C(=O)N[C@@H]1C(=O)N2C(C(=O)O)=C(CSc3nc(=O)c(O)nn3C)CS[C@H]12)c1csc(N)n1 | -0.08&-0.624&0.792 | -0.2&0.2
COc1ccc(OCCOC(=O)C23CCC(=O)N2c2ccccc2C(=O)N3C2CC2)cc1 (stereo unspecified) | x | -0.4
Cc1ccc(-c2cnc(SCC(=O)N3CCCC3=O)n2C)cc1 | x | -1.0
CCCCCCCCCC(=O)OCC(CO)OC(=O)CCCCCCCCC (stereo unspecified) | 0.839 | -2.5
OCCN1CCSC1=Nc1ccccc1C(F)(F)F | x | -0.7
CN1CCC23c4ccccc4NC1C21CCN(C)C3Nc2ccccc21 | 0.0005 | -0.7
N=c1ncn(CC(O)CO)c2nc(Br)[nH]c12 (stereo unspecified) | x | 0.6
COc1ccc(-c2nn(-c3ccccc3)cc2C(=O)N2CCOCC2)cc1 | x | -0.4
O=C(COC(=O)Cc1cn2ccsc2n1)Nc1nc2ccccc2s1 | x | 2.2
COC(=O)c1sccc1NC(=O)c1csc2ccccc12 | -1.49 | 1.4
N#Cc1ccc(-c2cccnc2)n(CC(=O)NC2CCCCC2)c1=O | 0.106 | -3.0
N#Cc1c(/N=C/N2CCCC2)sc2c1CCCCC2 | x | -0.6
O=C(c1cc2nc(-c3ccco3)cc(C(F)(F)F)n2n1)N1CCCc2ccccc21 | 1.31 | -1.7

Four of the entries above in order of the KSHV LANA nucl value, lowest first:
structure | KSHV LANA nucl
CN1CCC23c4ccccc4NC1C21CCN(C)C3Nc2ccccc21 | 0.0005
N#Cc1ccc(-c2cccnc2)n(CC(=O)NC2CCCCC2)c1=O | 0.106
CCCCCCCCCC(=O)OCC(CO)OC(=O)CCCCCCCCC (stereo unspecified) | 0.839
O=C(c1cc2nc(-c3ccco3)cc(C(F)(F)F)n2n1)N1CCCc2ccccc21 | 1.31

(continued)
SMILES | KSHV LANA nucl | Ab BasE inh
CN1CC=C(/C=C/c2ccc(N3CCCCC3)cc2)CC1 | 0.408 | -2.3
CCOc1ccc(S(=O)(=O)N(CC)CC(=O)NCC2CCCO2)cc1 (stereo unspecified) | 0.046 | 0.8
CCCn1c(=O)c2oc(C)cc2n(-c2ccccc2C)c1=O | 0.526 | 3.0
CCN(CC)S(=O)(=O)c1ccc(/C=C/C(=O)OCc2nnc(-c3ccccc3)o2)cc1 | x | 0.1
Cc1cc(C(=O)CSc2nc(N)cc(=O)[nH]2)c(C)n1C | x | 0.5
C=CCc1c(C)[nH]c(=S)[nH]c1=O | x | 2.9
CN(C)/C=N/N=C(\Cc1nc2ccccc2[nH]1)c1ccccc1 | x | 0.1
COc1cccc(-c2cn3c(n2)sc2cc(C(=O)NCC4CCCO4)ccc23)c1 (stereo unspecified) | -0.192 | -1.5
CC(C)Cc1ccc(C#N)c(SCC(=O)c2ccccc2)n1 | 0.149 | -0.1
Cc1cc2c3c([nH]c2cc1S(=O)(=O)NCc1ccco1)CC(C)(C)CC3=O | 0.456 | 0.9
CCCn1c(N)c(C(=O)CSc2nnc(-c3ccccc3)o2)c(=O)[nH]c1=O | x | 0.1
CCC(=O)O[C@]1(C(=O)CCl)[C@@H](C)CC2C3CCC4=CC(=O)C=C[C@]4(C)[C@@]3(F)[C@@H](O)C[C@@]21C (stereo partly specified) | 0.288&-0.4 | -3.8
Cc1ccc(S(=O)(=O)N2CCC(=O)CC2)cc1 | 0.57 | x
N#Cc1c(N)cc(N)[nH]c1=S | x | 1.2
CC(=O)N1NC(=Nc2ccccc2)SC1(C)C | 0.224 | 0.8
C1=NCCCC12CCCCC2 | 0.0795 | 2.5
Cc1ccc2cccc(OC(=O)c3ccc(OCc4c(C)noc4C)cc3)c2n1 | x | -3.1
C=CCN1C(=O)/C(=C\c2cccc(OC(=O)c3ccco3)c2)SC1=S | 0.702 | -2.7
Cc1cc(=O)c2cccc(C)c2[nH]1 | -0.486 | 0.2
COc1ccccc1C(=O)NC(=O)CSc1nnnn1C | x | 1.9
CN(C)c1ccc(C2C3=C(CCCC3=O)Nc3[nH]c(=O)[nH]c(=O)c32)cc1 (stereo unspecified) | x | 1.2
COc1cc(C(=O)NC2CCCNC2)cc(OC)c1OC (stereo unspecified) | 0.71 | x
[O-]/[N+](=C/c1ccco1)c1ccccc1 | 0.689 | -0.9
COc1cccc2c1NC1CC(C)CCC1C2(C)C (stereo unspecified) | x | 2.5
CCOC(=O)/C(C#N)=C\N1CCOCC1 | 0.587 | 1.6
Cc1ccc(-n2ccnc(SCC(=O)NCc3ccco3)c2=O)cc1C | -1.37 | 0.1
CCCN1C(=O)/C(=c2\sc3n(c2=O)C(c2ccccc2)C(C(=O)OC)=C(C)N=3)c2ccccc21 (stereo unspecified) | 0.989 | -1.0
CC(C)NC(=O)CSc1n[nH]c(-c2ccncc2)n1 | x | 0.8
CC(=O)O/N=C(\C)c1nccs1 | -0.031 | 2.1
COc1ccc(-c2cnc(N)n2CC2CCCO2)cc1 (stereo unspecified) | 0.215 | -1.1
